# Source: PubChem BioAssay
# HNF4A DNA FP: change in binding of human HNF4A to DNA, primary screen, biochemical, fluorescence polarization, FITC-DNA | 1 h | activity change, % at 10 µM | AID 1224865, 2016 | 360,000 compounds, 0.3% hits | Hepatocyte nuclear factor 4-alpha (Homo sapiens), P41235; in the data active = activity change above about 30%, passing the limit was not always enough;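 also: controls were the assay level and a saturating level of protein; the project sought stronger binding though the title names inhibitors; some compounds called inactive have numbers as strong as hits; positive values seem to mean higher polarization but the record does not say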
# Target sequence (P41235 whole entry, looked up): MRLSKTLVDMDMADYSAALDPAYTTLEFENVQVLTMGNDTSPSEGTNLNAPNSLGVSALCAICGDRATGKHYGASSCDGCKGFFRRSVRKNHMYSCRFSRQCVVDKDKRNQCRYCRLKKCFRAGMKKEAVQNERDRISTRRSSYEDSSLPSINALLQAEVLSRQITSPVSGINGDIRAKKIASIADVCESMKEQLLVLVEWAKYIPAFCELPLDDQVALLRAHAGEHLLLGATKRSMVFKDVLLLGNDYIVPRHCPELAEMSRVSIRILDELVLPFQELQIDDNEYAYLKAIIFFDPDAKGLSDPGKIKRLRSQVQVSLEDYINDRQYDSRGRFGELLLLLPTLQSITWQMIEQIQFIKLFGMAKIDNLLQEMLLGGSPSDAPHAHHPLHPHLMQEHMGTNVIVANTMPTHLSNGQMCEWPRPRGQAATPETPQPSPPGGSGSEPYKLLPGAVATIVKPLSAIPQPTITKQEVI
# Active calls of the source: *. Only part of the results is shown. The share of hits here may be higher or lower than overall.
SMILES,HNF4A DNA FP
O=C(NC1CCCCC1)C(c1ccnc2ccccc12)n1c(=O)c(-c2ccccc2)nc2ccccc21 (stereo unspecified),1.9
CCCNC(=O)C1(C)CCN(C(=O)c2oc3ccccc3c2C)C1 (stereo unspecified),-0.5
COc1ccc(C#Cc2cnc3c(c2)C(=O)N([C@H](C)CO)C[C@@H](C)[C@H](CN(C)C(=O)CN(C)C)O3)cc1,1.9
CCC(=O)Nc1ccc2c(c1)OC[C@@H](C)NC[C@@H](C)[C@@H](OC)CN(C)C2=O,0.8
CCCCCCn1cc(CN2CC(N3CCN(Cc4cccc(C)c4)CC3)CS2(=O)=O)nn1 (stereo unspecified),-1.1
Cc1cc(C)cc(-n2c3ccc(NC(=S)NC4CCCCC4)cc3c(=O)n2C)c1,0.2
CC(=O)c1ccc(OCc2c(-c3ccccc3)nnn2CC(=O)NS(=O)(=O)c2ccccc2C)cc1,0.9
O=c1c(N=Nc2ccccc2)c[nH]n1-c1ccccc1,3.9
NC(c1ccccc1)c1csc(Nc2ccc(C(=O)c3ccccc3)cc2)n1 (stereo unspecified),0.0
CC(=O)Oc1ccccc1Cn1c(C)c(C(=O)NCc2ccccc2C(F)(F)F)sc1=O,3.8
COc1cc(CN2C[C@@H](CO)O[C@@H](n3cnc4c(N5CCCC5)ncnc43)C2)cc(OC)c1OC,1.3
COc1ccc(CN2CCC(C)(Oc3ccc4c(c3)OCO4)C2)c2ccccc12 (stereo unspecified),0.3
CCCc1nc2ccccc2n1C(C(=O)NC(C)(C)C)C1CC1 (stereo unspecified),2.5
COc1ccc(CCC(=O)N2c3ccccc3N=C(c3ccc(C(F)(F)F)cc3)C2C(=O)NC2CCCC2)cc1 (stereo unspecified),-3.2
CCOC(=O)C(=O)N(C)c1c(CC)nc2c(OCc3ccccc3OC)cccn12,0.6
CCc1nc2ccc(C(=O)N3CCN(S(=O)(=O)CC)CC3)cn2c1N(CCC(C)C)CCN(C)C,-0.2
CCCC1NC(=O)c2cccnc2-n2c1nc1ccccc1c2=O (stereo unspecified),0.4
COc1ccc(-c2csc(C(NC(C)=O)c3cccc(F)c3)n2)cn1 (stereo unspecified),2.9
C(=NNC1=NCCN1)c1ccnc2ccccc12,-0.4
OC[C@@H]1CN(Cc2ccc3c(c2)OCO3)C[C@H](n2cnc3c(N4CCOCC4)ncnc32)O1,3.3
O=C1NC[C@@H](CCCCN2C[C@H](Cc3ccc(O)cc3)N(CCc3ccccc3)C(=O)C2=O)N(CC2CCCCC2)C1=O,-0.5
COc1ccc(-c2noc(CCC(=O)NC3CCCCCC3)n2)cc1OC,3.2
O=C(c1ccccc1)n1c2ccccc2c(=O)n1-c1ccccc1CCl,2.3
CC1(C(=O)NS(=O)(=O)c2cccc(C#N)c2)CCN1C(=O)c1ccccc1 (stereo unspecified),-3.4
CCC(c1nc2ccccc2[nH]1)n1c(=O)c(-c2cccs2)nc2ccccc21 (stereo unspecified),5.0

# A second format for 15 compounds above:
Compound	HNF4A DNA FP
Cc1cc(C)cc(-n2c3ccc(NC(=S)NC4CCCCC4)cc3c(=O)n2C)c1	0.2
CC(=O)c1ccc(OCc2c(-c3ccccc3)nnn2CC(=O)NS(=O)(=O)c2ccccc2C)cc1	0.9
O=c1c(N=Nc2ccccc2)c[nH]n1-c1ccccc1	3.9
NC(c1ccccc1)c1csc(Nc2ccc(C(=O)c3ccccc3)cc2)n1 (stereo unspecified)	0.0
CC(=O)Oc1ccccc1Cn1c(C)c(C(=O)NCc2ccccc2C(F)(F)F)sc1=O	3.8
COc1cc(CN2C[C@@H](CO)O[C@@H](n3cnc4c(N5CCCC5)ncnc43)C2)cc(OC)c1OC	1.3
COc1ccc(CN2CCC(C)(Oc3ccc4c(c3)OCO4)C2)c2ccccc12 (stereo unspecified)	0.3
CCCc1nc2ccccc2n1C(C(=O)NC(C)(C)C)C1CC1 (stereo unspecified)	2.5
COc1ccc(CCC(=O)N2c3ccccc3N=C(c3ccc(C(F)(F)F)cc3)C2C(=O)NC2CCCC2)cc1 (stereo unspecified)	-3.2
CCOC(=O)C(=O)N(C)c1c(CC)nc2c(OCc3ccccc3OC)cccn12	0.6
CCc1nc2ccc(C(=O)N3CCN(S(=O)(=O)CC)CC3)cn2c1N(CCC(C)C)CCN(C)C	-0.2
CCCC1NC(=O)c2cccnc2-n2c1nc1ccccc1c2=O (stereo unspecified)	0.4
COc1ccc(-c2csc(C(NC(C)=O)c3cccc(F)c3)n2)cn1 (stereo unspecified)	2.9
C(=NNC1=NCCN1)c1ccnc2ccccc12	-0.4
OC[C@@H]1CN(Cc2ccc3c(c2)OCO3)C[C@H](n2cnc3c(N4CCOCC4)ncnc32)O1	3.3

# (list continues)
SMILES,HNF4A DNA FP
CCCCC1Cc2[nH]c(=S)[nH]c(=O)c2C(C(C)C)O1 (stereo unspecified),2.5
COC(=O)C[C@H]1C=C[C@H](NC(=O)Cc2ccccc2)[C@@H](CO)O1,4.6
CCOC(=O)C1=NOC2(C1)C(=O)Nc1ccc(OC(F)(F)F)cc12 (stereo unspecified),-2.3
Cc1cc2nc(-c3ccccc3Br)n(/C=C(\c3ccccc3)n3c(=O)[nH]c4ccccc43)c2cc1C,-3.2
Cc1ccc(-c2nc3c(Cl)cc(C(F)(F)F)cn3c2Cc2cccc(F)c2)cc1,4.6
CC(NC(=O)c1cccc2c1Oc1ccccc1S2)C(=O)O (stereo unspecified),-1.0
CC(C)[C@H](NC(=O)OCc1ccccc1)C(=O)OCC(=O)NCc1ccco1,0.3
CCNC(=O)C1CCCN(C(=O)c2c(-c3ccccc3)noc2C)CC1 (stereo unspecified),-0.6
CC(=O)Nc1cccc(-c2ccnc3c2CC(C(=O)NCc2ccco2)O3)c1 (stereo unspecified),-8.1
CC(C)C[C@H]1CN(CCCC[C@H]2CNC(=O)C(=O)N2CC2CCCCC2)C(=O)C(=O)N1CC1CCCCC1,-0.2
COc1ccc(C(N)c2csc(Nc3ccc(C(=O)c4ccccc4)cc3)n2)cc1 (stereo unspecified),-1.0
C#Cc1ccc(NC(=O)C2(C)CCN2C(=O)C2(c3ccccc3)CCCC2)cc1 (stereo unspecified),1.1
[O-][N+](=Cc1ccccc1)CC1(O)CCCCC1,1.3
COc1ccc(C(C(=O)NC(C)(C)C)n2c(=O)c(-c3ccco3)nc3ccccc32)cc1 (stereo unspecified),17
CCc1nc2c(OCC(=O)C(C)(C)C)cccn2c1N(C)C(=O)CC(C)C,1.9
COc1cc(NC(=O)C2(C)CCN2C(C)C)cc(OC)c1OC (stereo unspecified),2.0
COc1ccc(NC(=O)N(C)C[C@H]2Oc3ncc(Br)cc3C(=O)N([C@H](C)CO)C[C@@H]2C)cc1,-2.3
CC(C)C(C(=O)NC1CCCC1)N1CCC(O)(c2ccc(Cl)cc2)CC1 (stereo unspecified),9.9
COc1ccc(NC(=O)c2cc(-c3ccc(F)cc3OC)n[nH]2)c(OC)c1,1.7
Oc1ccc(C[C@H]2CN([C@@H](Cc3ccccc3)CN3CCCC3CN3C(=S)NC[C@@H]3Cc3ccccc3)C(=S)N2CC2CCCCC2)cc1 (stereo partly specified),4.2
O=C(NCC1CCCO1)c1ccc(Cl)c(NS(=O)(=O)c2ccc(F)cc2)c1 (stereo unspecified),0.9
CCCOc1ccc(F)cc1-c1cc(C(=O)Nc2cc(OC)ccc2OC)[nH]n1,-0.7
CCCCC[C@H](C)N1C[C@H](COCc2ccccc2)Oc2cc(N3CCC[C@H]3COC)ccc2S1(=O)=O,-3.3
Cc1cc2c(cc1C)-n1nnnc1C(N(C)CCc1ccccc1)C(=O)N2 (stereo unspecified),4.0
CC(C)CC(N)c1csc(NC(=O)Nc2ccccc2Cc2ccccc2)n1 (stereo unspecified),4.4

# Brought forward from above: 2 entries, then new ones.
SMILES,HNF4A DNA FP
Cc1cc2c(cc1C)-n1nnnc1C(N(C)CCc1ccccc1)C(=O)N2 (stereo unspecified),4.0
CC(C)CC(N)c1csc(NC(=O)Nc2ccccc2Cc2ccccc2)n1 (stereo unspecified),4.4
CCOC(=O)[C@]12CCC=C1N(Cc1cccc3ccccc13)C(=O)[C@H](CC(=O)N1CCN(C(=O)c3ccco3)CC1)C2,2.5
FC(F)(F)c1ccccc1Cc1c(-c2cccc(Br)c2)nc2ccc(Br)cn12,8.2
CCc1ccc2c(c1)NC(=O)C2(C)Cc1ccccc1Cl (stereo unspecified),3.5
COC[C@H]1CCCN1[C@@H]1CS(=O)(=O)N[C@H]1COCc1ccccc1,6.0
CN(C1=NS(=O)(=O)c2ccccc21)c1ccc(OC(=O)c2ccccc2F)cc1,0.9
O=C(Nc1cccnc1)C1Cc2c(-c3ccccc3Oc3ccccc3)ccnc2O1 (stereo unspecified),-2.0
COc1ccc(C2Nc3cccc(O)c3C(=O)N2Cc2ccccc2)cc1COc1ccc(NC(C)=O)cc1 (stereo unspecified),-3.1
CC1(C(=O)NS(=O)(=O)c2ccccc2Cl)CCN1C(=O)CCC1CCCC1 (stereo unspecified),-1.4
O=C(CSc1ccc2c(c1)OCCO2)Nc1ccccc1,1.8
COc1ccc(NC(=O)C2(C)CCN2C)cc1OC (stereo unspecified),4.3
CC(C)N1CCC1(C)C(=O)Nc1ccc2cn[nH]c2c1 (stereo unspecified),1.1
CC1Cc2nc(SCC(=O)NCC3CCCO3)n(-c3ccccc3)c(=O)c2S1 (stereo unspecified),1.0
COC(=O)Cn1c2ccccc2c(=O)n1C(C)CBr (stereo unspecified),-0.8
CN(C)C(=O)c1cc2c(c(-c3cccc(C4=CCCCC4)c3)n1)[C@@H](CCO)N(S(=O)C(C)(C)C)C2 (stereo partly specified),3.6
CC(=O)Nc1cccc(NC(=O)NC2CC(=O)N(c3ccc4c(c3)OCCO4)C2)c1 (stereo unspecified),3.0
C[C@H]1CN([C@@H](C)CO)C(=O)CCCn2cc(nn2)CO[C@@H]1CN(C)C(=O)Nc1ccc2c(c1)OCO2,-1.6
CN(c1cccc(F)c1)c1cc2c(c3c1ccn3C)C1CCC2C1 (stereo unspecified),1.3
CCCCN(C=O)c1c(CC)nc2c(OCC(=O)c3ccc(F)cc3)cccn12,0.2
CN(C)CCCNC(=O)c1ccc(-c2cc3nc(NCc4cccnc4)n(C)c(=O)c3s2)cc1,3.0
Cc1ccc(-c2nc3c(c(SCC(=O)N4CCCC4)n2)COC(C)(C)C3)cc1,-0.9
CN(C)CCNc1ncnc2c1ncn2[C@H]1CN(CCc2ccccc2)C[C@@H](CO)O1,-2.1
CCCCCCN1CCN(C2CN(Cc3cn(Cc4ccc(F)cc4)nn3)S(=O)(=O)C2)CC1 (stereo unspecified),0.2
Cc1nc(CN2C(=O)C3(CCC3)ON=C2c2cccc(Cl)c2)cs1,-2.5
CCc1nc2c(OCc3ccc(C(F)(F)F)cc3)cccn2c1N(C)C(=O)c1ccncc1,0.1
CC(C)CC(N)c1csc(NC(=O)c2cc(C(C)(C)C)nn2Cc2ccccc2)n1 (stereo unspecified),4.2

# Next section:
SMILES,HNF4A DNA FP
C[C@@H]1CN([C@H](C)CO)C(=O)c2cc(Br)cnc2O[C@@H]1CN(C)C(=O)Cc1ccccc1,-0.2
COc1cccc(-c2cnc(C(O)c3cccc(C)c3C)[nH]2)c1 (stereo unspecified),0.3
COCCNc1nc(NCc2ccccc2F)c2sccc2n1,3.0
O=C(Cc1ccccc1)NC1CCCCC1,8.5
CCOC(=O)C1CCCN(C(=O)c2ccccc2OC(F)(F)F)CC1 (stereo unspecified),-0.9
CC(=O)Nc1cccc(-c2ccnc3c2CC(C(=O)Nc2ccc(F)c(Cl)c2)O3)c1 (stereo unspecified),2.9
CC1(C(=O)NS(=O)(=O)c2cccc(OC(F)F)c2)CCN1C(=O)CCc1cccs1 (stereo unspecified),0.5
O=C(NCCN1CCC(n2c(=O)[nH]c3ccccc32)CC1)c1ccc(C(F)(F)F)cc1C(F)(F)F,-0.8
O=C1c2ccccc2C(c2nnnn2Cc2ccccc2)N1Cc1ccc(F)cc1 (stereo unspecified),1.3
CCOC(=O)C1=C[C@@H](C(C)(C)C)N(S(=O)(=O)c2ccc([N+](=O)[O-])cc2)[C@H]1c1ccccc1,-1.9
CCOC(=O)C1CCN(C(=O)c2ccc3c(=O)n4nc(Nc5ccccc5)sc4nc3c2)CC1,-0.7
CN(C)C(=O)c1cccc(-c2cc(NC=O)c3ncc(-c4ccc(F)cc4)n3c2)c1,0.4
CN(C)CCCNC(=S)N1CCC(C(=O)c2ccc(Cl)cc2)CC1,-1.6
CCCCCNC(=O)C(c1ccncc1)n1c(=O)c(-c2ccco2)nc2ccccc21 (stereo unspecified),3.3
CC(C)C[C@H]1COc2cccc(N3CCN(Cc4ccccc4F)CC3)c2S(=O)(=O)N1,-1.7
CCNC(=O)C1(C)CCN(C(=O)c2ccc3c(c2)CCO3)C1 (stereo unspecified),1.4
COCCN1C(=O)COc2ccccc2C1C(=O)NC1CCCC1 (stereo unspecified),-1.6
COC(=O)c1ccc(CNC(=O)CC[C@H]2O[C@@H](n3cc(C)c(=O)[nH]c3=O)C[C@@H]2O)cc1,2.8
COCCCNC(=O)c1cccc2c(-c3cccc(C(N)=O)c3)coc12,-2.6
COC(=O)c1ccccc1COc1cccn2c(N(C)C(=O)CCC3CCCC3)c(C)nc12,-3.4
CC1NC(=O)c2cc3ccccc3cc2-n2c1nc1ccc(F)cc1c2=O (stereo unspecified),-4.2
O=C(CNC(=O)OCc1ccccc1)NCC(=O)NC(Cc1c[nH]c2ccccc12)C(=O)O (stereo unspecified),2.5
CCCNC(=O)C1(C)CCCN(CC(=O)c2ccc3c(c2)OCCO3)C1 (stereo unspecified),-0.5
CCC1OC(C(C)C)Cc2[nH][nH]c(=O)c21 (stereo unspecified),0.1
O=S(=O)(NCc1nnnn1-c1ccc(F)cc1)c1ccc(F)cc1,0.5
CC(=O)C1=CCC(c2ccc(Br)cc2)N(S(=O)(=O)c2ccc(C)cc2)C1 (stereo unspecified),-2.2
COc1ccc([C@H]2CC(=O)C[C@@H](CCn3cc(-c4ccccc4)nn3)O2)cc1,-0.6
CC[C@H](C)[C@@H]1OC(=O)[C@@H](C)[C@@H](CC)NC(=O)[C@H](C)N(C)C(=O)C(C)(C)C(=O)C(C)NC(=O)[C@H](Cc2ccccc2)N(C)C(=O)[C@H](C(C)C)N(C)C(=O)CNC(=O)[C@H](CC(C)C)N(C)C(=O)CNC1=O (stereo partly specified),2.4
CCc1nc2ccc(C(=O)N3CCN(C(=O)c4ccco4)CC3)cn2c1N(C)Cc1cccs1,0.1
CCCCN(C=O)c1c(CC)nc2c(OCc3ccccc3C)cccn12,-2.2
